EBV LMP1 NFkB – EBV LMP1-driven NF-kappaB luciferase reporter inhibitors, primary screen, cell-based, luminescence, single point; LMP1-induced NF-kappaB luciferase reporter cells; inhibition, % at 12.5 µM; 350,000 compounds, 0.69% hits; in the data active = inhibition above about 41%;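 note: 0% = neutral control wells and 100% = reference inhibitor control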
iPSC survival up – enhancers of single-cell hiPSC survival, primary screen, ATPlite luminescence; survival enhancement, % at 20 µM; 100% = ROCK inhibitor wells, 0% = DMSO; 360,000 compounds, 0.044% hits; AID 602274, 2012; in the data active = survival enhancement above about 18%;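 note: cells exposed to compounds for 16 hours before the ATP read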
NR2E3 ag-1 – NR2E3 agonists in two-hybrid cells, primary screen, cell-based, luminescence, CHO-S, Gal4-NCOR/VP16-NR2E3. luciferase. 360,000 compounds, 0.35% hits. inhibition of corepressor binding, % at 3.98 µM. AID 602229, 2012;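 active = inhibition above the mean of all tested compounds plus 3 SD, cut at about 70% in these data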;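 note: 0% = DMSO with NR2E3 transfected cells and 100% = cells lacking NR2E3 construct; higher means lower luciferase signal from less NR2E3 corepressor binding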
Target sequence (Q9Y5X4 whole entry, looked up, the tested form may be a part): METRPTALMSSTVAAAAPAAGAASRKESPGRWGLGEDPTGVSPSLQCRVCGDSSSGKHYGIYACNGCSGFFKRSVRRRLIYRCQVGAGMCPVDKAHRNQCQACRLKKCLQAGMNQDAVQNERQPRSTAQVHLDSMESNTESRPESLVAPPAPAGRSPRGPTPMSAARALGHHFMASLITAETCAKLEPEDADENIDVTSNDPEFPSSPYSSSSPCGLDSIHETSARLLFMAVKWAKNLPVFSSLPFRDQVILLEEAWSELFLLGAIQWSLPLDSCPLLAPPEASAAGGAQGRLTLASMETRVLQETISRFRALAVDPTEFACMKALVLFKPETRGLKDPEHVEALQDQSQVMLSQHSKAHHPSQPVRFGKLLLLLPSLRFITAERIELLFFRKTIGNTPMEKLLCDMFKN
C8 TRAIL sens – viability loss with TRAIL in NB7+C8 cells, primary screen, TRAIL sensitizer project, cell-based, ATPlite luminescence; AID 624354, 2012; inhibition (viability loss, TRAIL sensitization), % at 10 µM; 360,000 compounds, 1% hits;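 active = compounds causing at least 50% loss of cell viability in the single-dose screen, relative to plate controls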
KKLEB tox – cytotoxicity in KKLEB CF airway cells, primary screen, cytotoxicity control for CF NF-kB inhibitor project, cell-based, uHTS, fluorescence assay plates; AID 602141, 2011; KKLEB CF airway cells viability, ATPlite luminescence, overnight; active compounds read low; cells stimulated with P. aeruginosa culture filtrate; activity change (cytotoxicity), % at 5 µM; 360,000 compounds, 0.36% hits;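 active = corrected activity change at or below -50% at 5 µM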
NR2E3 ag-2 – inhibitors of NR2E3-RetCOR corepressor binding, primary screen, NR2E3 agonist project, biochemical, TR-FRET, GST-NR2E3, biotin-RetCOR | 1536-well | AID 2300, 2010 | inhibition of corepressor binding, % at 4.78 µM | 320,000 compounds, 0.12% hits;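 active = percent inhibition above the cutoff of mean plus 3 SD of all tested compounds, set per screening campaign, cut at about 20% in these data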;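 note: 0% = DMSO wells and 100% = biotin wells as full block of FRET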
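Assay system: NR2E3–RetCOR corepressor complex. Quantity: 1.35 nM GST-NR2E3. Buffer or medium: pH 7.5 Tris-based buffer. Reagent: biotinylated RetCOR corepressor at 7 nM final. Schedule: 5 h at 4 °C. Detection: TR-FRET, emission read at 617 and 671 nm. Replicates: one well per compound, singlicate testing.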
* marks the source's active call; other numbers are inactive results; x = not tested or not shown. This is a subset (hit frequency here may not be typical).

SMILES	EBV LMP1 NFkB	iPSC survival up	NR2E3 ag-1	C8 TRAIL sens	KKLEB tox	NR2E3 ag-2
CC[C@@]1(O)C(=O)OCc2c1cc1n(c2=O)Cc2cc3c(CN(C)C)c(O)ccc3nc2-1	75*	-3.1	44	34	40	14
COc1ccccc1NC(=O)c1nc(S(=O)(=O)Cc2ccccc2)ncc1Cl	1	3.2	-13	94*	-85*	0
Cc1ccc(CSc2nc(N)cc(=O)[nH]2)cc1	3	-0.4	0	0	-11	2
CCOc1cc(/C=C2\C(=O)ON=C2c2ccccc2)ccc1OC	7	-0.7	-25	15	2	-2
O=C(/C=C/c1ccccc1[N+](=O)[O-])c1ccccc1Br	-17	-0.2	2	-5	-10	-2
CCSC1=NC2(CCCCC2)Nc2sc3c(c21)CCCC3	0	-3.8	2	-9	-4	2
O=c1ccc2cc3c4c(c2o1)CCCN4CCC3	2	0.0	-7	-12	3	2
CC1(C)CC(N2CCN(C(c3ccccc3)c3ccccc3)CC2)=CC(=[N+]2CCCCC2)C1	51*	-0.7	0	54*	-32	-3
CC(=O)C1=C(S(=O)(=O)c2ccc(C)cc2)CS(=O)(=O)C1	-31	-0.5	-3	-4	8	x
CC(=O)N(C(C)=O)n1c(/C=C/c2ccc([N+](=O)[O-])cc2)nc2ccccc2c1=O	3	1.6	-8	-7	7	1

Fetched one by one from the list above (five):
SMILES	EBV LMP1 NFkB	iPSC survival up	NR2E3 ag-1	C8 TRAIL sens	KKLEB tox	NR2E3 ag-2
O=C(/C=C/c1ccccc1[N+](=O)[O-])c1ccccc1Br	-17	-0.2	2	-5	-10	-2
CCOc1cc(/C=C2\C(=O)ON=C2c2ccccc2)ccc1OC	7	-0.7	-25	15	2	-2
CC(=O)C1=C(S(=O)(=O)c2ccc(C)cc2)CS(=O)(=O)C1	-31	-0.5	-3	-4	8	x
CC[C@@]1(O)C(=O)OCc2c1cc1n(c2=O)Cc2cc3c(CN(C)C)c(O)ccc3nc2-1	75*	-3.1	44	34	40	14
Cc1ccc(CSc2nc(N)cc(=O)[nH]2)cc1	3	-0.4	0	0	-11	2

3 compounds already listed, sorted by count of non-hydrogen atoms, high to low:
SMILES	EBV LMP1 NFkB	iPSC survival up	NR2E3 ag-1	C8 TRAIL sens	KKLEB tox	NR2E3 ag-2
CC[C@@]1(O)C(=O)OCc2c1cc1n(c2=O)Cc2cc3c(CN(C)C)c(O)ccc3nc2-1	75*	-3.1	44	34	40	14
CCSC1=NC2(CCCCC2)Nc2sc3c(c21)CCCC3	0	-3.8	2	-9	-4	2
O=c1ccc2cc3c4c(c2o1)CCCN4CCC3	2	0.0	-7	-12	3	2

From PubChem
